Screening data from PubChem.
TRPML1 ag = agonists of human TRPML1 channel | 410,000 compounds, 0.12% hits | Q9GZU1 | TRPML1-expressing cells, Ca2+ dye fluorescence, FDSS; host cell line not named in the record; reference of the full effect not given here | activation, % (concentration not given with the values); in the data active = activation above about 50%; inconclusive = about 30% to 50%; inactive = below about 30%; further: 0% is about no effect; the text of the record puts the active cut at 80%
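Tet-induced TRPML1-DL cells, 1,500 per well, cultured overnight, were loaded with a no-wash Ca2+ dye for 45–90 min. Calcium fluorescence was recorded on the FDSS for 110 s after compound addition, before the EC80 agonist (4 uM 54-4) was added.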
D2 agonist = human D2 receptor agonism in beta-arrestin assay; DiscoveRx PathHunter D2 beta-arrestin, luminescence, 90 min; 100% = 57 uM dopamine signal; activation, % (test concentration not listed); 360,000 compounds, 0.084% hits; in the data active = activation above about 40%; inconclusive = about 15% to 40%; inactive = below about 15%; further: compound concentration not given in the record; the text of the record calls up to 30% inactive
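Agonist mode: compounds alone added to overnight-plated D2 PathHunter cells for 90 min at 37 C, with 57 uM final dopamine (EC100) defining full response. Beta-arrestin recruitment detected by chemiluminescent reagent, read after 1 h at ambient temperature.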
Six1-Eya2 inh = Six1/Eya2 interaction inhibition. Q15475+O00167. AlphaScreen GST-Six1/His-Eya2 binding, biochemical; hits give low values; control for the full effect not named in the record. activity change, % (concentration not given with the values). 360,000 compounds, 0.56% hits. AID 651725; in the data active = activity change below about -65%; inconclusive = about -30% to -65%; inactive = above about -30%; further: on the % scale 0 is the no-effect control and ±100 the full control effect
Target sequence (O00167 whole entry, looked up): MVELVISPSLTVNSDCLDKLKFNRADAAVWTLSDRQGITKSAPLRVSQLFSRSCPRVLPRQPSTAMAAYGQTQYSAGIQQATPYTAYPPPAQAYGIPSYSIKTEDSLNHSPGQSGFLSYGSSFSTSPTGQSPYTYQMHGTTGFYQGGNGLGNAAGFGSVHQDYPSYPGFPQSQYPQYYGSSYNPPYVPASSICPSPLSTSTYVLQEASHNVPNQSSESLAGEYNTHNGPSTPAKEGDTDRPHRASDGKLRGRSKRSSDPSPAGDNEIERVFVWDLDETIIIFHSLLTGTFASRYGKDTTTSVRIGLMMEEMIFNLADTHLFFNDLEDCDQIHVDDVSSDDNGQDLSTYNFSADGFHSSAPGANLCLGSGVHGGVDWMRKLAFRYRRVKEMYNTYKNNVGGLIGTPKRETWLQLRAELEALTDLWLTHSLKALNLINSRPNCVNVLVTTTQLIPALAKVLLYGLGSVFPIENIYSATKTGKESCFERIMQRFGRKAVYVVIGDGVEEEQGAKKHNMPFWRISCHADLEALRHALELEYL
Target sequence (Q15475 whole entry, looked up): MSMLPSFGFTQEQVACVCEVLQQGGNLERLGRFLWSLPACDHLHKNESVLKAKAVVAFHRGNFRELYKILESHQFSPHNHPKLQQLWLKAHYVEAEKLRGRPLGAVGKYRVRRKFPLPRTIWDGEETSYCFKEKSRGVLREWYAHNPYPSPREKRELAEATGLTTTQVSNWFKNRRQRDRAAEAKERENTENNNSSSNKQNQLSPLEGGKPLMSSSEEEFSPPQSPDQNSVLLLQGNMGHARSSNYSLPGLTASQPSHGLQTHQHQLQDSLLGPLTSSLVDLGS
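Homogeneous AlphaScreen proximity assay pairing GST-Six1 with His-tagged Eya2 (added as 5X mix: 250 nM and 500 nM) in 50 mM Tris pH 8.0, 300 mM NaCl, 1 mM TCEP. Glutathione donor and nickel acceptor beads; 1 h, 37 °C, dark.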
D2 potentiator = potentiates the human D2 dopamine receptor allosterically; P14416; DiscoveRx D2 beta-arrestin cells, luminescence, 90 min; 100% = 57 uM dopamine signal; potentiation, % (concentration not given with the values); 360,000 compounds, 0.23% hits; AID 624464; active = potentiation of 50% or more; inconclusive = 30% to 50%; inactive = 30% or less;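 further: tested on top of an EC20 dose of dopamine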
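D2 cells co-treated with compound plus 50 nM dopamine (EC20) for 90 min at 37 deg C to detect potentiation. Beta-arrestin recruitment was read as enzyme-fragment luminescence after 1 h at ambient temperature. Full response was set by 57 uM dopamine.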
PINK1 expr mod = changes PINK1 expression. PINK1 immunofluorescence, high-content cytometry, 24 h. Potency, µM (series often up to 76.6 µM), for inactives: at the top dose activation (PINK1 increase), usual class: activators. 410,000 compounds, 0.2% hits. AID 624263; active = well fitted activation curve with a large enough effect; inconclusive = small, poorly fitted or top-dose-only effect; inactive = flat fitted curve, though single readings scatter; cell line not stated here;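 further: potency means the concentration at half of the fitted maximal effect; % of control where 0% means no effect; nearly all actives have a fitted effect of over 65% in size; a mitochondrial uncoupler was the plate control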
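A stable cell line was treated with compounds at 5 concentrations for 24 hours, with CCCP as control. PINK1 levels and mitochondrial localization were measured by immunofluorescence with mitochondrial, cell and nuclear markers after fixation, read by laser-scanning cytometry.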
CtBP-E1A blk = inhibitors of CtBP/E1A interaction; 340,000 compounds, 0.49% hits; AlphaScreen GST-E1A/His-CtBP binding, 1536-well; hits give low values; control for the full effect not named in the record; activity change, % (no concentration beside the values); in the data active means activity change below about -65%; inconclusive means about -30% to -65%; inactive means above about -30%; further: on the % scale 0 is the no-effect control and ±100 the full control effect
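Steps: dispense buffer (Tris pH 8.0, NaCl 300 mM, TCEP 1 mM, BSA, Tween 20); add 5X protein mix (GST-E1A, His-CtBP, 125 nM each); pin 23 nL compound; 2 h at 37 °C, dark; add 5X beads (50 ug/mL); 1 h; read.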
Active calls of the source: *; ? = inconclusive; / = not tested or not shown; & = joins results of further samples; [ ] = another dose, or the depositor's remark.

SMILES	TRPML1 ag	D2 agonist	Six1-Eya2 inh	D2 potentiator	PINK1 expr mod	CtBP-E1A blk
CN(C)c1ccc(/C=N/NC(=O)c2ccc(-n3cnnn3)cc2)cc1	-1.2	-3.8	-2.9	-11.0	9.7%	/
Cc1ccc(S(=O)(=O)N2CCOCC2)cc1NC(=O)COC(=O)CCn1c(C)csc1=O	-0.3	2.0	4.6	-0.9	4.6%	0.7
O=C(CSc1nnc(Cc2cc(=O)[nH]c(=O)[nH]2)n1-c1ccc(F)cc1)NC1CCCC1	-0.2	4.6	-0.5	-3.5	0.9%	1.1
COc1cc(CN2C(=O)C(Cc3ccccc3)ON=C2c2ncccc2C)cc(OC)c1 (stereo not drawn)	-0.6	0.5	0.1	3.4	-0.1%	0.1
CN(C)NC(=S)NC(=O)C12CC3CC(CC(C3)C1)C2	0.0	-1.8	7.7	-3.7	4.8%	6.4
CCCCOc1cccc(OCCCC)c1C(=O)Nc1cc(C)on1	2.1	-0.5	3.2	-3.5	13.4%[38.3 µM]	3.5
O=C(NCCO)C(=O)c1c(-c2ccc(Cl)cc2)cc2ccccn12	-0.5	-4.1	9.0	-5.6	-0.9%	-0.5
Cc1cccc(NC(=S)NC(=O)c2ccc(Br)o2)c1	2.2	-4.6	-13.7	-13.1	-0.2%	-5.7
CCN(CC)S(=O)(=O)c1cc(C(=O)OCC(=O)Nc2cccc(Br)c2)ccc1F	1.0	-0.6	-1.3	-9.9	-0.8%	3.1
CC(C)(C)NC(=O)CCN(/N=C/c1ccccc1O)C1=NS(=O)(=O)c2ccccc21	-1.9	5.1	-22.7	-2.2	-0.9%	2.1
COc1ccc(NC2CCCN(C(=O)c3cc(C)nc4cc(F)ccc34)C2)cc1 (stereo not drawn)	0.2	5.9	-0.9	-7.2	0.8%	-17.0
CCOc1ccc(NC(=O)CSc2nnc(C(C)C)n2CC)cc1	2.1	-3.9	0.1	-12.1	0.3%	8.5
COc1ccccc1CNC(=O)COC(=O)/C=C/c1ccc2c(c1)OCO2	2.4	-6.2	0.0	-9.5	6.4%	5.8
c1ccc2c(N3CCCCC3)nc(N3CCOCC3)nc2c1	0.2	-3.4	10.8	-10.3	0.9%	7.2
Cc1cc(C)cc(NS(=O)(=O)c2ccc(F)cc2)c1	3.0	-5.2	-2.4	2.4	2.7%	4.7
CCOc1ccccc1C(=O)N[C@H](C(=O)OCc1cc(=O)oc2cc(C)ccc12)C(C)C	-0.3	-4.7	-7.7	-2.2	4.1%	25.9
Cc1ccc(NC(=S)NN2CCN(C)CC2)c(C)c1	-0.1	-0.1	-0.6	-1.5	1.0%	13.2
CCN(CC)CCCN(Cc1cc2cc3c(cc2[nH]c1=O)OCO3)C(=S)Nc1ccc(OC)cc1	-0.3	-2.4	-1.8	-4.0	5.7%	3.7
O=C1CCNc2cc3ccccc3cc21	0.1	14.9	-13.4	55.4*	2.6%	-24.0
Cc1cc(C)c(S(=O)(=O)NCCOc2ccccc2)c(C)c1-n1cnnn1	-0.3	-2.0	-6.5	-1.2	3.1%	-8.4
Cc1noc(C)c1C(=O)OCC(=O)c1cc(C)n(Cc2ccccc2Cl)c1C	2.7	1.0	-10.3	4.4	-0.1%	-4.2
Cc1cnc2c(C(=O)O)cnn2c1	-0.4	6.3	4.2	0.4	2.0%	2.9
Cc1cc(C)c(C(=O)CSC2=NC(N)=C(C#N)C3(CCCCC3)C2C(N)=O)cc1C (stereo not drawn)	-0.8	-1.4	-5.0	-5.7	-4.2%[38.3 µM]	-6.7
O=C(C1=C[C@@H](c2ccc(C(F)(F)F)cc2)C[C@@H](OCc2ccc(CO)cc2)O1)N1CCN(Cc2ccc3c(c2)OCO3)CC1	0.9	1.7	-15.8	-3.9	-0.7%	-11.0
CCCc1cc(C(=O)Nc2sc3c(c2C#N)CCC3)no1	0.4	-0.6	-3.0	-1.9	12.0%	-4.5
Other compounds follow.
SMILES	TRPML1 ag	D2 agonist	Six1-Eya2 inh	D2 potentiator	PINK1 expr mod	CtBP-E1A blk
Cc1ccc(Cl)c(NC(=O)COC(=O)c2ccccc2C(=O)c2ccc(Cl)c([N+](=O)[O-])c2)c1Cl	1.2	-1.8	2.2	2.2	-1.9%	0.0
CCC(C)N(C(=O)c1csnn1)C(C(=O)NC1CCCC1)c1ccc(F)cc1 (stereo not drawn)	-0.3	-2.1	-0.5	1.7	0.2%	-17.9
CCCCC(=O)Nc1cccc(-c2nc3ncccc3o2)c1C	-1.5&-0.6	0.1	0.5	-1.7	1.7%&0.8%	-0.8
Cc1nc([N+](=O)[O-])cn1CC(O)c1ccc(-c2ccccc2)cc1 (stereo not drawn)	-0.8	-4.1	-1.2	-21.6	-0.9%	/
CC1=CC(C)(C)C(C(=O)O)C(C(=O)O)C1 (stereo not drawn)	0.1	-2.2	0.4	-3.9	2.7%	6.3
COC(=O)CCCCCN1C(=O)NC(c2ccc(-c3ccccc3)cc2)C(C(=O)OCc2ccccc2)=C1C (stereo not drawn)	0.6	-2.6	0.8	-7.7	-0.8%	-1.8
Cc1cc2oc(=O)cc(C)c2cc1NC(=O)CCC(=O)O	-0.3	-1.2	-0.8	2.3	/	7.6
CCc1ccc(OCC(=O)Nc2cccc3nsnc23)cc1	3.9	-4.4	40.3	-2.5	-0.6%	35.4
COc1cccc(OC(=O)CSc2nnc(-c3ccccc3Br)o2)c1	0.1	0.3	4.1	-3.4	1.6%	3.7
CCOc1ccc(C(=O)NCC(C)NC(=O)c2ccc(OCC)cc2)cc1 (stereo not drawn)	0.9	-10.3	7.1	-15.2	1.1%	6.4
CCCn1cc(SCC(=O)Nc2ccc3c(c2)OCO3)c2ccccc21	1.9	-2.5	-2.6	-4.6	3.1%	-14.6
CCN(CC(=O)NCc1cccs1)C(=O)/C=C/c1cc(OC)c(OC)c(OC)c1	-0.4	2.1	3.0	-6.9	0.1%	6.8
COC(=O)c1c(C)oc(C)c1S(=O)(=O)N1CCCC1	0.9	-3.9	6.0	-8.5	1.5%	5.9
CCc1noc(C)c1C(=O)NNC(=O)c1ccccc1F	0.0	-1.9	2.1	-5.0	2.2%	-10.9
O=C1C2CC=C(Cl)CC2C(=O)N1CCC[n+]1ccccc1 (stereo not drawn)	-0.6	0.9	0.8	11.4	0.7%	3.5
COc1ccccc1N(CC(=O)NCC1CCCO1)C(=O)Cn1nnc(-c2cccs2)n1 (stereo not drawn)	0.0	-2.2	0.8	-2.6	-0.5%	3.2
Cc1ccc(CNC(=O)/C=C/[C@H]2O[C@@H](n3cc(C)c(=O)[nH]c3=O)C[C@@H]2O)o1	-0.3	-3.5	10.2	-5.8	-0.1%	-7.6
COc1ccc(C)cc1NC(=O)C(c1ccccc1)N1CCN(CC(=O)N2CCCC2)CC1 (stereo not drawn)	0.0	-4.1	-6.5	-7.3	-1.6%	2.9
CCOC(=O)N1CCN(C(=O)/C(=C/c2ccc(F)cc2)NC(=O)c2ccccc2)CC1	-0.3	1.8	-0.9	-1.4	-0.5%	1.1
CC(=O)N1CCc2cc(Br)cc(S(=O)(=O)NCCCN3CCC(C)CC3)c21	0.0	-0.4	2.8	-22.4	0.6%	1.6
COc1ccc(C2CC(c3ccc(Cl)cc3Cl)n3nc(N)nc3N2)cc1 (stereo not drawn)	0.1	0.3	-4.8	0.1	1.3%	-0.8
Cc1ccc2nsnc2c1S(=O)(=O)N1CCCC1	-0.8	-3.4	3.4	-10.5	0.9%	2.6
CCCc1c(C)nc2scc(-c3ccc(Cl)cc3)n2c1=O	0.6	-5.6	6.9	-3.6	-0.1%	4.2
COc1cc(-c2nnc(SCC(=O)NC3CCS(=O)(=O)C3)o2)cc(OC)c1OC (stereo not drawn)	-0.2	4.3	5.7	6.1	0.4%	0.9
CC(C)C[C@H](NC(=O)[C@@H]1Cc2ccccc2CN1C(=O)OC(C)(C)C)C(=O)NCC1CCC(C(=O)O)CC1 (stereo partly drawn)	0.0	-3.5	-6.0	-2.6	-0.2%	-0.6
(list continues)
SMILES	TRPML1 ag	D2 agonist	Six1-Eya2 inh	D2 potentiator	PINK1 expr mod	CtBP-E1A blk
CCOC(=O)C1=C(C)N(CCCC(=O)O)C(=O)NC1C(CC)CC (stereo not drawn)	-0.3	1.1	5.1	-31.4	1.0%	-3.3
COc1ccc(/C=N/n2c(C)cc(C)cc2=O)cc1	-0.1	-1.5	6.9	-3.7	0.4%	5.5
C=CCc1ccc(OCCOc2ccc(/C=N/n3cnnc3)cc2OCC)c(OC)c1	-0.5	1.2	-9.1	19.3	3.2%	-2.5
CC(C)NC(=O)CC1C(=O)N(Cc2ccccc2)C(C)c2nc3ccccc3n21 (stereo not drawn)	0.3	-3.4	1.0	-1.1	-0.8%	1.5
CN(C)CCCNc1c2c(nc3cc(-c4cccc(F)c4)nn13)CCC2	-0.8	-6.0	0.9	1.9	0.7%	/
CC(=O)Nc1ccc(CNc2nc(NC(C)C)nc3ccsc23)cc1	-0.8	-3.8	-1.0	-10.5	0.6%	-0.5
O=C1c2ccccc2C(=O)N1CCc1nn[nH]n1	-0.2	-1.2	0.3	-1.7	1.8%[38.3 µM]	11.9
O=C1CCCN1CN(C(=O)c1ccc2c(c1)OCO2)c1ccc(F)cc1	-0.1	-2.7	1.0	-0.9	0.1%	8.2
Cc1cc(NC(=O)CSc2ccc3nnc(-c4cccs4)n3n2)no1	-0.7	-6.2	?	-7.3	5.6%	-67.6*
Cc1cc(C)c(NC(=O)CSc2nc3ccc(N4C(=O)c5ccccc5C4=O)cc3s2)c(C)c1	-0.2	-0.7	-1.3	-9.5	1.3%	-17.7
Cc1ccc(C)c(S(=O)(=O)N(C)c2ccc(OC(=O)C3CCN(C(=O)c4ccc(F)cc4)CC3)cc2)c1	1.7	-1.8	-14.8	-15.2	6.7%	-7.9
Cn1c(SCC(=O)NC2CCCCC2)nnc1-c1ccc(N)cc1	-0.3	-17.7	0.5	-3.2	1.9%	0.5
COc1cc(C(=O)Oc2cccc(C=O)c2)cc(OC)c1OC	0.4	-1.0	1.8	-0.8	2.4%[38.3 µM]	0.3
Cc1ccccc1-c1cc(C(=O)NCc2ccc(OC(F)(F)F)cc2)n(CC2CC(c3cccnc3)=NO2)n1 (stereo not drawn)	2.6	-0.8	12.6	-24.8	0.8%	/

Another view of part of the listing above:
CC(=O)Nc1ccc(CNc2nc(NC(C)C)nc3ccsc23)cc1
  TRPML1 ag = -0.8
  D2 agonist = -3.8
  Six1-Eya2 inh = -1.0
  D2 potentiator = -10.5
  PINK1 expr mod = 0.6%
  CtBP-E1A blk = -0.5
CC(C)NC(=O)CC1C(=O)N(Cc2ccccc2)C(C)c2nc3ccccc3n21 (stereo not drawn)
  TRPML1 ag = 0.3
  D2 agonist = -3.4
  Six1-Eya2 inh = 1.0
  D2 potentiator = -1.1
  PINK1 expr mod = -0.8%
  CtBP-E1A blk = 1.5
COc1ccc(/C=N/n2c(C)cc(C)cc2=O)cc1
  TRPML1 ag = -0.1
  D2 agonist = -1.5
  Six1-Eya2 inh = 6.9
  D2 potentiator = -3.7
  PINK1 expr mod = 0.4%
  CtBP-E1A blk = 5.5
CCOC(=O)C1=C(C)N(CCCC(=O)O)C(=O)NC1C(CC)CC (stereo not drawn)
  TRPML1 ag = -0.3
  D2 agonist = 1.1
  Six1-Eya2 inh = 5.1
  D2 potentiator = -31.4
  PINK1 expr mod = 1.0%
  CtBP-E1A blk = -3.3
